Mtb MenB inh: M. tuberculosis MenB inhibitors, primary screen, biochemical, absorbance. AID 540299, 2011. actives 0.43% (n = 100,000). inhibition, %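 (about 12 µg/mL by stock and volumes)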. 1,4-dihydroxy-2-naphthoyl-CoA synthase (Mycobacterium tuberculosis (strain ATCC 25618 / …. MenB enzyme assay, absorbance read-out; some hits fall short of the stated cut;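 active means mean of two replicates above 30%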;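 further: 0% = no compound and 100% = wells with inactive enzyme; the first replicate is given; strong numbers were not always called active; inactives centre near -10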
Target sequence (P9WNP5 whole entry, looked up): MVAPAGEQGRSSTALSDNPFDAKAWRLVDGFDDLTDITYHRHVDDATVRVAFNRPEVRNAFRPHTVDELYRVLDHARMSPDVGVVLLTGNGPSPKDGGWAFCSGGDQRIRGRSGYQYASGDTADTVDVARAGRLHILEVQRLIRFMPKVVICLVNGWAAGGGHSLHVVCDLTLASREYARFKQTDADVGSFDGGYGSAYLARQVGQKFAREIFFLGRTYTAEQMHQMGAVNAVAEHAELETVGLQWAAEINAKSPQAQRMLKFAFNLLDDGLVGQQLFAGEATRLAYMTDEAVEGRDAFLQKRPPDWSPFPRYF
MbtI inh: MbtI salicylate synthase inhibitors, primary screen, biochemical, fluorescence intensity; actives 0.89% (n = 100,000); purified MbtI enzyme, fluorescence intensity read-out; AID 493033, 2011; inhibition, %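 (about 17 µg/mL by stock and volumes)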;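 active means above 50% in both replicates, above 80% if mildly self-fluorescent; inactive means the rest, strongly fluorescent compounds included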;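 further: 0% = mean of negative and 100% = mean of positive controls; one replicate is shown; some compounds called inactive have numbers as strong as hits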
PV pol inh: poliovirus RdRp elongation inhibitors, primary screen, biochemical, fluorescence polarization, total intensity | Genome polyprotein (Poliovirus type 1 (strain Mahoney)), P03300 | poliovirus polymerase elongation; stronger effect = lower value | % elongation, % (compound at 16.7 µg/mL) | actives 0.66% (n = 150,000) | AID 588519, 2011; in the data active means % elongation below about 90%; further: some results filed as inactive read as strong as hits
Target sequence (P03300 1749-2209 limits assumed): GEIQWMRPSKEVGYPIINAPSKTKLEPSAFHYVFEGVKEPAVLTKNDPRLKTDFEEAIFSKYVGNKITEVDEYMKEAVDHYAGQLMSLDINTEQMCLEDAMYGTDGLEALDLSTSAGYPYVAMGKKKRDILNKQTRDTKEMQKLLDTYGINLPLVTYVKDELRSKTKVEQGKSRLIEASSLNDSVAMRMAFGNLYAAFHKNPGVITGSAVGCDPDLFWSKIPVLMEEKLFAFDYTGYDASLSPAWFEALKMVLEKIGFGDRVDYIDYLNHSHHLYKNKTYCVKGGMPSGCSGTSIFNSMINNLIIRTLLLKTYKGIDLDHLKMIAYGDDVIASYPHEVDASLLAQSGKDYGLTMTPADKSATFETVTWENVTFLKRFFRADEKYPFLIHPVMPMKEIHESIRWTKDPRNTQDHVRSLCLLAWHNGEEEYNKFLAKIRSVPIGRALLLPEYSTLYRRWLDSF
PV pol inh intensity: further read-out of PV pol inh, marked with its call; % elongation; measured here: total intensity read-out; formula for this scale not given here;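 total fluorescence in place of polarization; lower means less elongation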
Active calls of the source: *; · = not tested or not shown.

No.	smiles	Mtb MenB inh	MbtI inh	PV pol inh	PV pol inh intensity
1	CCC(Oc1ccccc1)C(=O)Nc1nccs1 (stereo unspecified)	-6	-6	102	105
2	O=C(COC(=O)c1ccc2ccccc2n1)Nc1ccccc1-c1ccccc1	·	-1	102	105
3	O=C(N1CC(Oc2ccc(Cl)cc2)C1)N1CC(Oc2ccc(Cl)cc2)C1	-43	-2	107	104
4	Cc1ccc(/C(O)=C2\C(=O)C(=O)N3c4ccccc4OC(=O)C23O)cc1 (stereo unspecified)	-86	-13	104	105
5	CC1=NN2C(=N)/C(=C/c3cn(CCOc4c(C)cccc4C)c4ccccc34)C(=O)N=C2S1	-11	-8	103	101
6	O=C(c1cc2ccccn2n1)N1CCN(c2ccc(Cl)nn2)CC1	-5	-9	99	102
7	Cc1ccc(S(=O)(=O)N(C)S(=O)(=O)c2cccc(C(F)(F)F)c2)cc1	-26	-10	101	103
8	Cc1oc(S(=O)(=O)N2CCCC2)cc1-c1nc(-c2ccc(F)cc2)no1	7	-8	110	111

Next section:
No.	smiles	Mtb MenB inh	MbtI inh	PV pol inh	PV pol inh intensity
9	O=C(OCN1C(=O)c2ccccc2C1=O)c1cccnc1SC(F)F	0	11	98	93
10	COC(=O)c1cc(NC(=O)c2cccc(Cl)c2)cc(C(=O)OC)c1	-22	-10	102	109
11	O=C(CCCN1C(=O)S/C(=C\C=C\c2ccccc2)C1=O)Nc1ccc(C(=O)O)cc1	-51	20	101	98
12	FC(F)(F)c1cccc(-c2nnc(-c3ccc(Cl)cc3)o2)c1	5	12	98	96
13	COC(=O)c1ccc(Oc2ccc(Cl)cc2)nc1	-5	0	98	100
14	O=S(=O)(c1ccccc1)N1C2C=CC(C2)C1(C(F)(F)F)C(F)(F)F (stereo unspecified)	-4	-7	102	103
15	CC(C)NC(=O)CCc1nnc2n(Cc3ccccc3)c(=O)c3ccccc3n12	-4	-2	102	102
16	O=C(O)CC1(CC(=O)Nc2ccc(-c3cn4c(n3)SCC4)cc2)CCCCC1	11	2	103	99

(continued)
No.	smiles	Mtb MenB inh	MbtI inh	PV pol inh	PV pol inh intensity
17	COc1ccc(-c2nn(CCC#N)cc2C(=O)O)cc1OC	-2	-12	100	101
18	C=CCc1cc(OC)cc(CC=C)c1O	-1	·	105	116
19	Cc1ccc2nc(-c3cc(Cl)ccc3NC(=O)CCC(=O)O)c(=O)[nH]c2c1	-14	4	101	100
20	C(=N\NC1=NCCCCC1)/c1ccccc1	-11	13	101	104
21	Cc1cccc(N2CCN(C(=O)CCCN3C(=O)c4ccccc4Sc4ncccc43)CC2)c1C	-10	-3	104	102
22	CCCNC(=O)CSc1nc(-c2cccs2)cc(C(F)(F)F)n1	5	19	100	103
23	CC(=O)Nc1cc2nc(N)sc2cc1NC(C)=O	-33	2	104	104
24	O=C1Nc2ccccc2Oc2ccc(S(=O)(=O)N3CCOCC3)cc21	1	-20	102	105

Further structures
No.	smiles	Mtb MenB inh	MbtI inh	PV pol inh	PV pol inh intensity
25	COC(=O)c1cc(-c2ccco2)nc2c1cnn2Cc1ccc2c(c1)OCO2	3	-28	71*	81*
26	C=CCN(c1ccc(C(=O)N2CCCC2)cc1)S(C)(=O)=O	-16	-5	103	97
27	CC1=NN(c2ccccc2)C(=O)C1=C1SCCS1	9	11	102	104
28	CCN1CN=C(SCc2cccc(C#N)c2)NC1	-11	2	95	91
29	COc1cccc(OC)c1SC	0	-10	101	101
30	CCOC(=O)N/N=C1/c2ccccc2C2(O)NC(=O)NC12O (stereo unspecified)	-9	4	104	100
31	CC(C)CN(CC(C)C)C(=O)c1cc2c(=O)n3ccccc3nc2s1	-6	-262	101	97
32	O=C(CCCc1nc2ccccc2s1)Oc1ccc2c(c1)OCO2	-13	20	103	109

(further entries)
No.	smiles	Mtb MenB inh	MbtI inh	PV pol inh	PV pol inh intensity
33	CCc1ccc(NCc2c(C(=O)O)cnn2-c2ccccc2)cc1	-8	-4	102	103
34	CCOCCC(=O)N1CCN(c2ccccc2)CC1	3	1	99	98
35	O=C(Cn1ccccc1=S)c1ccccc1	-11	17	102	103
36	COc1ccc2cc(S(=O)(=O)c3ccc(C)c(C)c3)c(=Nc3ccc4c(c3)OCCO4)oc2c1	-51	1	105	102
37	c1ccc(-c2nn3c(CN4CCCC4)nnc3c3ccccc23)cc1	5	2	100	104
38	COc1ccc(CCNC(=O)NC(C)(C)C)cc1	-26	·	100	85
39	COc1ccc(S(=O)(=O)Nc2cc(C)cc(C)c2)cc1	9	·	103	99
40	CCn1cc(C(=O)NCc2cccnc2)c2cc(OC)c(OC)cc2c1=O	-10	-4	99	105

Later entries
No.	smiles	Mtb MenB inh	MbtI inh	PV pol inh	PV pol inh intensity
41	C/C(=N\OCc1ccc(C#N)cc1)c1ccc2c(c1)OCCO2	-12	6	102	102
42	O=C(Nc1ccccc1)c1c[nH]c(=O)n(-c2ccccc2)c1=O	1	4	103	105
43	CCC(C)N=Cc1c(O)[nH]c(=S)[nH]c1=O (stereo unspecified)	-41	19	100	100
44	S=C1NCN(Cc2ccccc2)CN1CC1CCCO1 (stereo unspecified)	-1	1	103	99
45	CC1(C)Cc2cccc(OCCNC(=O)c3cnccn3)c2O1	-25	-27	101	105
46	CN(C)S(=O)(=O)c1ccc(C(=O)OCc2ccccc2F)cc1	-4	3	99	100
47	Oc1ccc2ccccc2c1CN1CCCC1	-42	90	101	102
48	COc1ccc(N=Cc2c(N3CCCC3)nc3c(C)cccn3c2=O)cc1	-91	-6	106	108

Another view of some results above:
19	Cc1ccc2nc(-c3cc(Cl)ccc3NC(=O)CCC(=O)O)c(=O)[nH]c2c1
  Mtb MenB inh = -14; MbtI inh = 4; PV pol inh = 101; PV pol inh intensity = 100
25	COC(=O)c1cc(-c2ccco2)nc2c1cnn2Cc1ccc2c(c1)OCO2
  Mtb MenB inh = 3; MbtI inh = -28; PV pol inh = 71*; PV pol inh intensity = 81*
42	O=C(Nc1ccccc1)c1c[nH]c(=O)n(-c2ccccc2)c1=O
  Mtb MenB inh = 1; MbtI inh = 4; PV pol inh = 103; PV pol inh intensity = 105

Further entries follow.
No.	smiles	Mtb MenB inh	MbtI inh	PV pol inh	PV pol inh intensity
49	CC(C)NC(=S)NN=C1CCCCC1	-62	3	107	100
50	O=S(=O)(c1cccs1)N1CN(Cc2ccccc2)c2nc3ccccc3nc21	-15	-6	·	·
51	COc1ccccc1NC(=O)c1cccc(N2C(=O)C3CC=CCC3C2=O)c1 (stereo unspecified)	2	·	103	101
52	CCOc1nc2cccnc2n(Cc2cc(=O)n3ccccc3n2)c1=O	-25	-195	104	103
53	O=C(CSc1nn2c(=O)cnnc2s1)N1CCc2ccccc21	-28	-6	103	100
54	CC(C)(C)NC(=O)CCCN1C(=O)/C(=C\c2ccco2)SC1=S	-152	6	106	105
55	Cc1[nH]nc2c1C(c1ccco1)N(C)C2=O (stereo unspecified)	-14	-7	101	102
56	CCc1nnc(NC(=O)c2ccc(S(=O)(=O)N3CCc4ccccc4C3)cc2)s1	12	-1	99	101

New compounds follow.
No.	smiles	Mtb MenB inh	MbtI inh	PV pol inh	PV pol inh intensity
57	CCN(Cc1ccc(OC)c(F)c1)C(=O)c1ccccc1-n1cnnn1	-5	-7	97	102
58	CN(C(=O)CSc1nnc(-c2cccs2)o1)C1CCCCC1	13	-41	102	101
59	Cc1cc(C(=O)N=c2sccn2Cc2ccc(Cl)cc2Cl)on1	-28	43	103	103
60	O=C(COc1ccc(Cl)cc1)n1cnnc1	-5	·	109	108
61	CN(C)/C=C/C(=O)c1cc(F)cc(F)c1O	2	-11	96	93
62	Nc1cc(=O)[nH]c(SCCOc2ccccc2)n1	-3	-20	100	103
63	Cc1ccc(N2C(=O)C(Cc3ccccc3)N=C2N2CCC(C)CC2)cc1 (stereo unspecified)	-33	10	101	101
64	CSc1nc2ccc(NC(=O)CCc3ccccc3)cc2s1	-20	·	109	113

Continued.
No.	smiles	Mtb MenB inh	MbtI inh	PV pol inh	PV pol inh intensity
65	O=C(NCC(O)c1ccccc1)Nc1ccccc1 (stereo unspecified)	22	0	107	110
66	CCC(C(=O)NC1CCCC1)n1c2ccccc2c2nc(=O)cc(C)n21 (stereo unspecified)	1	17	102	104
67	CCCCN(CC)C(=O)C1c2ccccc2C(=O)N(CCOC)C1c1ccc(F)cc1 (stereo unspecified)	-8	-7	99	101
68	CCOC(=O)c1ccc(CC2S/C(=N/N=C/c3ccc(O)cc3)NC2=O)cc1 (stereo unspecified)	-57	-10	100	102
69	N#CCn1c(COC(=O)c2cn(-c3ccccc3)nc2-c2ccc(F)cc2)nc2ccccc2c1=O	-1	2	103	106
70	Cn1c(C(=O)Nc2cccc(C(F)(F)F)c2)cc2c(=O)oc3ccccc3c21	-15	13	102	104
71	CCOC(=O)C1CCN(C(=O)c2cn(-c3ccccc3)nc2-c2cccnc2)CC1	-11	-8	103	112
72	COc1ccc2c(c1)=C(c1sc(=S)[nH]c1O)C(=O)N=2	-65	·	101	97

Remaining list, next part
No.	smiles	Mtb MenB inh	MbtI inh	PV pol inh	PV pol inh intensity
73	CC1CCCC(C)N1C(=O)c1ccc(NC(=O)C(O)(c2ccccc2)c2ccccc2)cc1 (stereo unspecified)	-22	29	100	106
74	CN(C)c1nc(Oc2ccc(=O)[nH]n2)nc(N2CCCCC2)n1	-5	·	107	104
75	C=CCNC(=O)CC1Nc2ccccc2NC1=O (stereo unspecified)	-9	-52	100	100
76	Cc1ccc(C2SCC(=O)N2Cc2cn3ccsc3n2)o1 (stereo unspecified)	-8	5	97	94
77	COc1ccc(CCNc2cc3c(nn2)Oc2ccccc2N3C)cc1OC	-17	17	103	102
78	COC(=O)c1ccccc1NC(=O)c1ccc2c(c1)CC(C)O2 (stereo unspecified)	·	40	103	105
79	Cc1cc(C)cc(NC(=S)NC2CCCCC2)c1	-7	-11	107	108
80	Cc1ccc(CN2C3CCCC2CC(NC(=O)Nc2ccc(C#N)cc2)C3)cc1 (stereo unspecified)	-8	-8	99	102

Continuation:
No.	smiles	Mtb MenB inh	MbtI inh	PV pol inh	PV pol inh intensity
81	Oc1ccc(Br)cc1-c1cc(-c2ccco2)[nH]n1	·	20	102	104
82	CCOC(=O)/C(C#N)=C/c1ccc(OC(=O)c2nn(C)cc2Br)cc1	-3	7	100	100
83	CC1CC(NC(=O)CCn2c(=O)oc3ccccc32)CC(C)(C)C1 (stereo unspecified)	-7	-1	99	96
84	COc1ccc(-c2nn(C)c(=O)c3ccccc23)cc1CNC(=O)c1ccco1	6	55	103	104
85	COc1ccc(CSc2nc3ccccc3n2CCC#N)cc1F	-24	4	108	108
86	O=c1[nH][nH]c(=S)n1CCc1ccccc1	-13	68*	93	86
87	O=S(=O)(c1ccc(N2CCOCC2)nc1)N(Cc1ccccn1)Cc1ccccn1	-12	-7	103	115
88	CC(C)(C)C(=O)Nc1nnc(SCc2ccc(Cl)cc2Cl)s1	-14	11	105	104

The listing continues.
No.	smiles	Mtb MenB inh	MbtI inh	PV pol inh	PV pol inh intensity
89	O=C(CSc1ncn[nH]1)CSc1ncn[nH]1	-2	23	101	102
90	COc1cc(C(=O)NCc2nnc(SCC(=O)Nc3cc(C)on3)o2)cc(OC)c1OC	-5	1	102	106
91	O=C(COC(=O)c1ccc(Cl)cc1)NC1CCS(=O)(=O)C1 (stereo unspecified)	-10	-5	104	92
92	CN(CCO)c1nc(N)c2c(N)nc3c(c2c1C#N)CC(=O)N3C1CCCC1	5	-110	102	106
93	COC(=O)Cc1cccc2ccccc12	·	-10	102	106
94	C=CCN1C(=O)/C(=C/c2cc(C)n(CCOC)c2C)C(=O)NC1=S	-40	16	93	122
95	O=c1cc(-c2ccccc2)c2cc3c(cc2[nH]1)OCCO3	-21	0	102	104
96	COc1cccc(NCc2nnc(-c3ccccc3)o2)c1	8	-9	101	103

Later entries:
No.	smiles	Mtb MenB inh	MbtI inh	PV pol inh	PV pol inh intensity
97	CCOC(=O)c1c(NC(=O)C2=CC(c3cccs3)=NS(=O)(=O)N2C)sc(C)c1C	-36	70	100	96
98	O=C(O)COc1ccc(/C=C2\COc3ccccc3C2=O)cc1	-100	1	94	85
99	CC1=CC(=O)C(N(C)C2CCS(=O)(=O)C2)=CC1=O (stereo unspecified)	3	100*	96	96
100	CN(Cc1ccccc1)C(=O)c1cc(-c2ccccc2O)no1	-27	-12	103	102
101	COc1ccc(N2CCN(C(=O)c3nn(-c4ccccc4)nc3C)CC2)cc1	-26	-4	104	106
102	O=C(O)CCN1CCN(c2cccc(Cl)c2)CC1	-19	-8	101	100
103	CC1CN(CC(=O)Nc2ccc(S(N)(=O)=O)cc2)CC(C)O1 (stereo unspecified)	1	-4	104	102
104	Nc1c(C(=O)NC2CC2)sc2nc(-c3ccncc3)ccc12	-50	9	90	124
105	O=C(Cc1csc(Nc2nc(=S)[nH]c3ccccc23)n1)NCc1cccc(Cl)c1	-74	-3	104	98
106	O=C1CCCN1c1ccc(S(=O)(=O)Nc2noc3ccccc23)cc1	-20	-3	104	93

Source: PubChem (ICCB-Longwood Screening Facility, Harvard Medical School)
